CapD inh = CapD enzyme inhibition; AID 492967; z-score (no concentration beside the values); 0.23% of 140,000 active; purified CapD enzyme, fluorescence intensity read-out; stronger effect = lower value; some hits fall short of the stated cut;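 active means z-score under -4 in either of two replicates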;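 further: stock transfer was 100 nL into about 40 µL; score is relative to mean and spread of the plate; one replicate is shown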
AID504770 = growth inhibitors of E. coli YBA685 in a screen for V. cholerae RctB (chromosome II replication) inhibitors | E. coli YBA685 rctB-dependent plasmid, OD600 growth, 3 h; stronger effect = lower value | z-score (test concentration not listed) | 0.27% of 130,000 active;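 active means z-score under -2 on both plates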;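 further: wells of about 30 µL received 100 nL stock; score is relative to mean and SD of the test wells; the first replicate is given; strong numbers were not always called active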
An asterisk follows results filed as active; nt = no result given; & = joins results of further samples. A portion of the library; rates above refer to the full screens.

item	canonical_smiles	CapD inh	AID504770
1	Cc1ccc(S(=O)(=O)c2cc3ccccc3oc2=O)cc1C	2.05	-0.2
2	O=C(NCC(=O)N1CCN(c2ccccc2)CC1)c1cccs1	0.52	1.2
3	CC(C)(C)C(=O)NCCc1c[nH]c2ccccc12	0.485	1.2
4	CN(C)CCCNC(=O)CC(CC(=O)C1CC1)c1ccc(Br)cc1 (centres undefined)	0.835	nt
5	COc1ccc(OC)c(-n2c(=S)[nH]c3cc(C(=O)Nc4ccc(C)c(Cl)c4)ccc3c2=O)c1	-0.485	0
6	Cc1nc(N)[nH]c(=O)c1CCC(=O)OCC(C)C	0.055	-1.55
7	COc1ccc(C(=O)NC(CC(C)C)C(=O)O)cc1 (centres undefined)	0.07	0.85
8	O=C(NCC1CCN(S(=O)(=O)c2ccccc2)CC1)Nc1ccccc1	-0.465	0.55
9	Cc1c(C(=O)O)sc2nc(-c3ccc(Cl)cc3)nn12	0.725	2.25
10	CCCN1C(=O)C2ON(c3ccccc3)C(c3ccncc3)C2C1=O (centres undefined)	nt	-0.2
11	O=C1C=C(Nc2ccccc2)C(=O)N1Cc1ccccc1	nt	-0.1
12	CSc1nc2sc3c(c2c(=O)[nH]1)CCc1ccccc1-3	-0.34	-0.65
13	CCCN1Cc2cccc(C(N)=O)c2C1=O	-0.16	-0.65
14	O=C(CN1CCC(N2CCCCC2)CC1)c1ccc2c(c1)OCCO2	nt	-0.15
15	N[C@@H]1CONC1=O	-0.13&-0.92	0.2
16	O=S1(=O)CC(Sc2ccc(Cl)cc2)c2ccccc21 (centres undefined)	-0.405	-0.6
17	CCCOc1ccc(C(=O)NCC(C)(C)N2CCOCC2)cc1	nt	-0.9
18	CN1C(=O)CSC1=NC12CC3CC(CC(C3)C1)C2	0.375	0.35
19	O=C(CC1NCCNC1=O)NCCc1ccccc1 (centres undefined)	-0.035	-0.25
20	O=C(/C=C/c1ccco1)OCc1ccc(Br)cc1	nt	-0.85
21	O=C(CO/N=C/c1cccc(Oc2ccccc2)c1)N1CCN(C(=O)c2ccco2)CC1	nt	-0.5
22	CCOC(=O)C1=NN(c2ccc(C)cc2)C2(S1)SC(c1ccc(Cl)cc1)(c1ccc(Cl)cc1)c1ccccc12 (centres undefined)	1.48	nt
23	O=C1NC(=Nc2ccccc2Cl)S/C1=C/c1cc2c(cc1Br)OCO2	-0.235	nt
24	O=C(Cn1ncc(Cl)c(Cl)c1=O)N(C1=CCCCC1)C1CC1	nt	-0.2
25	C=CCOc1cccc(-c2nc(-c3ccccn3)no2)c1	0.855	-0.1
26	CCOC(=O)N1CCC(N2Cc3cccc(C(=O)Nc4ccc(OC)c(OC)c4)c3C2=O)CC1	1.42	-0.25
27	COc1ccc2cc(CCC(C)=O)ccc2c1	-0.23&-0.135	-0.05
28	N#Cc1ccc(-c2ccc(Cl)cc2)n(Cc2cccc(Cl)c2)c1=O	0.095	nt
29	Cc1csc2nc(CN(C)Cc3ccccc3)cc(=O)n12	103	0.2
30	COc1cc(OC)cc(C(=O)OC(C)C(=O)NC2CCCCC2)c1 (centres undefined)	nt	-0.95

(list continues)
item	canonical_smiles	CapD inh	AID504770
31	Cn1c(COc2ccc(Cl)cc2)nnc1SCC(=O)Nc1c(C#N)oc2ccccc12	nt	0.95
32	COc1cccc(N2C(=O)/C(=C/c3ccco3)SC2=S)c1	0.64	0.85
33	O=C1Nc2ccccc2C(=O)C1(O)O	0.135	1.6
34	O=C(N/N=C/c1cccc(Oc2ccc(Cl)c(Cl)c2)c1)C1CC1c1ccccc1 (centres undefined)	0.96	nt
35	CC12CCC(=O)N1C(C(=O)OCC(=O)c1ccc(F)c(F)c1)CS2 (centres undefined)	nt	-0.5
36	Cc1cc(C)cc(C(=O)/C=C2\NC(=O)CS2)c1	nt	1.1
37	CCNC(=O)CSCc1ccc(C)cc1	0.46	0.05
38	Cc1cc(C)c2c(n1)nn1c(C)c(CCC(=O)NC3CCCC3)c(C)nc21	-0.085	3.05
39	Cc1[nH]c2ccccc2c1C(Nc1cccc(C(F)(F)F)c1)c1ccccn1 (centres undefined)	0.99	-0.2
40	COc1ccc(-c2n[nH]c(=S)n2C)cc1	nt	-0.35
41	CCc1ccccc1NNC(N)=S	0.035	1.6
42	COc1ccc(C2=NN(C(=O)c3cc(OC)c(OC)c(OC)c3)C(c3ccc(F)cc3)C2)cc1OC (centres undefined)	1.6	nt
43	c1ccc(CCN2CCN(c3ccccc3)CC2)cc1	0.06	-0.55
44	COC(=O)c1ccc(N2CCCC2=O)cc1O	0.4	0.25
45	O=C(N/N=C/c1cc(F)cc(C(F)(F)F)c1)c1ccc([N+](=O)[O-])o1	-0.98	nt
46	CC1CN(C(=O)Cn2c(C(F)(F)F)nc3ccccc32)CC(C)O1 (centres undefined)	0	-1.55
47	COc1ccc(C2CC(=O)C3=C(C2)Nc2ccccc2NC3c2ccc(OC)c(Br)c2)cc1 (centres undefined)	-1.23	nt
48	COCC(C)N1C(=O)Cc2c1nc(N)c1c(N)nc(N3CCN(c4ccccc4F)CC3)c(C#N)c21 (centres undefined)	nt	-0.85
49	CC(=O)Nc1ccc(/C(C)=N/NC2=NCCN2)cc1Br	nt	0.5
50	CC(=O)OCC1OC(Oc2ccc(C(=O)O)cc2OC2OC(COC(C)=O)C(OC(C)=O)C(OC(C)=O)C2OC(C)=O)C(OC(C)=O)C(OC(C)=O)C1OC(C)=O (centres undefined)	-0.33	nt
51	O=c1ccc(-c2ccc(S(=O)(=O)NC3CCCCC3)s2)n[nH]1	1.39	-1.05
52	c1ccc2c(c1)CC1(CCCC1)N=C2N1CCOCC1	0.475	nt
53	Cc1ccc(S(=O)(=O)N2CCN(Cn3nc(Nc4ccccc4F)sc3=S)CC2)cc1	nt	-0.55
54	CC1CCC2C(C)(CO)C(O)CCC2(C)C12CCC(C)(CO)O2 (centres undefined)	0.605	1.15
55	[O-][n+]1onc(-c2ccccc2)c1-c1ccccc1	nt	0.25
56	Cc1cnc(C(=O)N(CC(=O)Nc2cccc(C)c2C)CC2CCCO2)cn1 (centres undefined)	nt	0.15
57	Cc1noc(C)c1NC(=O)NCc1cc(F)cc2c1OCOC2	1.25	-0.2
58	CC1=NN(c2ccc(C)cc2)C(=O)C1=C1SCCCS1	-2.17	0.65
59	Cc1ccc(NC(=S)C(C#N)C(N)=O)cc1Cl (centres undefined)	-0.44	-0.6
60	O=C(c1c[nH]c2ccc(S(=O)(=O)N3CCC4(CC3)OCCO4)cc2c1=O)N1CCN(c2ccccn2)CC1	0.005	nt

(next part)
item	canonical_smiles	CapD inh	AID504770
61	Cc1nn(C)c2nc(C(F)(F)F)cc(C(F)(F)F)c12	3.42	0.55
62	Cc1ccc(NC(=O)c2sc3ncn(CC(=O)N4CCC(C)CC4)c(=O)c3c2C)c(Br)c1	0.465	nt
63	O=C(Nc1ccccc1)C(O)C(O)C(O)CO (centres undefined)	-0.24	0.55
64	COc1ccc(NC(=O)c2cc3ccccc3o2)cn1	-0.48	0.6
65	CCCCN(C(=O)c1ccccc1)C1=CC2CCC(C1)N2C (centres undefined)	-0.405	nt
66	O=C(Oc1ccc(C2Oc3ccccc3C3CC(c4ccc(Br)cc4)=NN32)cc1)c1ccccc1 (centres undefined)	0.2	nt
67	CSc1nc(C)cc(Oc2ccc(=O)n(-c3ccccc3)n2)n1	0.055	0.25
68	CC1C(C#N)=C(SCC#N)NC2=C1C(=O)CC(C)(C)C2 (centres undefined)	-0.705	-0.85
69	O=C(Nc1nc2c(s1)CCCC2)C1=COCCO1	0.075	-0.15
70	Cc1cc(O)c(/C=N/c2ccccn2)c(=O)o1	0.415&0.315	-1.05&-0.9
71	Oc1ccc(-c2nc3c4ccccc4ncn3n2)cc1	nt	1.65
72	Nc1nnc(CS(=O)(=O)c2ccc(Cl)cc2)o1	-0.17	-1.3
73	CC(=O)Oc1ccc(N2C(=O)C3C4C=CC(O4)C3C2=O)cc1 (centres undefined)	-0.85	1.1
74	CN(C)c1nc2n(c(=O)n1)CCN2C(=O)Nc1ccccc1	-0.03	-0.2
75	CC(C)c1ccc(NC(=O)CSc2nc3[nH]ncc3c(=O)n2-c2cccc(Cl)c2Cl)cc1	-0.27	nt
76	CN(Cc1nc2ccccc2n1C)C(=O)c1cccs1	-1.6	0.2
77	CN=c1scc(-c2ccc3c(c2)NC(=O)CO3)n1C	nt	-0.35
78	COC(=O)COc1ccc2c(=O)c(Oc3ccc(OC)cc3)coc2c1	0.065	-0.65
79	O=C(OC1CCCC1=O)c1ccc(N2CCCC2=O)cc1 (centres undefined)	nt	-0.4
80	Nn1cnc2ccccc21	nt	1.85
81	CCCCN(C)C(=O)c1cc(-c2ccccc2)n[nH]1	-0.405	-0.1
82	c1ccc2c(c1)CCCC2NC1=NCCC1 (centres undefined)	nt	-0.2
83	Cc1nc(NCCc2ccccc2)c2c3c(sc2n1)CCCC3	4.53	0.4
84	O=C(CN1C(=O)CCC1=O)Nc1ccc(Br)cc1	-0.725	-0.95
85	COc1ccccc1C(C1C(=O)N(c2ccccc2)N=C1C)C1C(=O)N(c2ccccc2)N=C1C (centres undefined)	-1.55	nt
86	COc1ccccc1-c1ccc(=O)n(CC#N)n1	nt	0.55
87	CCNC(=O)N(CCCC(O)c1ccc(F)cc1)C(C)C (centres undefined)	-0.62	nt
88	CC(=O)N(C1=C(O)c2ccccc2C(=O)C1=O)C1CCCCC1	-0.07	-0.55
89	CCN(CC)Cc1c(O)ccc2c(-c3ccccc3)cc(=O)oc12	5.25	-1.1
90	COc1ccccc1NC(=O)C1C2c3ccccc3C(c3ccccc32)C1C (centres undefined)	-0.915	-0.9

Pulled by structure from the list above, four records:
item	canonical_smiles	CapD inh	AID504770
78	COC(=O)COc1ccc2c(=O)c(Oc3ccc(OC)cc3)coc2c1	0.065	-0.65
73	CC(=O)Oc1ccc(N2C(=O)C3C4C=CC(O4)C3C2=O)cc1 (centres undefined)	-0.85	1.1
81	CCCCN(C)C(=O)c1cc(-c2ccccc2)n[nH]1	-0.405	-0.1
69	O=C(Nc1nc2c(s1)CCCC2)C1=COCCO1	0.075	-0.15

Continued.
item	canonical_smiles	CapD inh	AID504770
91	N#Cc1ccccc1OCC(=O)OCC(=O)NC1CCCCCC1	nt	-0.35
92	Nc1c(C(=O)NCc2ccc3c(c2)OCO3)c2nc3ccccc3nc2n1C1CCCCC1	nt	2.75
93	CCNc1nc(NCC)nc(OCCNS(=O)(=O)c2ccccc2)n1	0.555	-0.2
94	COCCn1c(=NC(=O)CN2C(=O)c3ccccc3C2=O)sc2ccccc21	nt	-0.75
95	CCCC(=O)Nc1nnc(-c2ccc(Cl)cc2)o1	0.065	0.7
96	CC1(C)CC2CC(C)(CN2C2=CC3=CC(=C(C#N)C#N)CCC3CC2)C1 (centres undefined)	nt	-0.25
97	C=CCn1c(SCC(=O)Nc2ccc3c(c2)OCO3)nc2ccccc2c1=O	nt	0.05
98	C(=C\c1ccncc1)/c1ccncc1	-0.355	-1
99	COC(=O)C12CCC(C)(C(=O)O1)C2(C)C (centres undefined)	0.205	-0.35
100	O=C(NCc1ccc2c(c1)OCO2)c1ccc(Cn2c(=S)[nH]c3ccc(Br)cc3c2=O)cc1	-0.385	nt
101	CCOC(=O)c1sc(N)c(C#N)c1COC(=O)CNC(=O)c1ccccc1	nt	-0.15
102	COc1cc(Br)c(C2Nc3ccc4ccccc4c3C3=C2C(=O)CC(C)(C)C3)cc1OC (centres undefined)	32.2	nt
103	N#C/C(=C/c1cn(-c2ccccc2)nc1-c1cc2ccccc2oc1=O)C(N)=O	2.63	0.35
104	Cc1sc2ncnc(N)c2c1C	nt	1.65
105	CC(=O)Nc1ccc([N+](=O)[O-])cc1[N+](=O)[O-]	-0.41	nt
106	CCOc1c(C)nc(C)c(OCC)c1-c1cccc([N+](=O)[O-])c1	-1.02	nt
107	CCc1ccc(C2=NN(CCC(=O)NC(C)CC)C(=O)CC2)cc1 (centres undefined)	0.365	-0.9
108	CC(C)(C)NS(=O)(=O)c1ccc(NC(=O)c2ccc(Br)o2)cc1	0.56	0.2
109	CN(C)C=Nc1ccc(S(=O)(=O)c2ccc(N=CN(C)C)cc2)cc1	nt	1.4
110	CCOC(=O)c1c(C)[nH]c(NC(=O)NCc2cccnc2)c1C	-0.255	0.95
111	O=S(=O)(Nc1nc2ccccc2nc1Nc1ccccc1F)c1ccc(Cl)cc1	-0.05	2.15
112	Cn1ccnc1C(O)c1cccs1 (centres undefined)	0.225	-0.3
113	CC12CC3CC(C)(C1)CC(NCc1ccccn1)(C3)C2	nt	-1.05
114	CS(=O)(=O)c1ccc(S(=O)(=O)N(Cc2ccc(-c3ccccc3)cc2)Cc2ccco2)cc1	-0.35	nt
115	CCCN1CCC(N(C(=O)c2c(F)cccc2F)C2CC2)CC1	-0.645	nt
116	CCOc1ccc(OCC)c(NC(=O)C2CCCN(S(=O)(=O)c3cccs3)C2)c1 (centres undefined)	-1.15	-0.3
117	CN(Cc1ccccc1)S(=O)(=O)c1ccc(C(=O)Nc2nnc(-c3ccco3)o2)cc1	nt	-0.85
118	C/C(=N\OCc1ccccc1C#N)c1cc2ccccc2o1	nt	0.55

Compound profiles, as listed above. Order of values: CapD inh, AID504770
CC12CC3CC(C)(C1)CC(NCc1ccccn1)(C3)C2 across the screens: nt, -1.05
COCCn1c(=NC(=O)CN2C(=O)c3ccccc3C2=O)sc2ccccc21 across the screens: nt, -0.75
CCOc1ccc(OCC)c(NC(=O)C2CCCN(S(=O)(=O)c3cccs3)C2)c1 (centres undefined) across the screens: -1.15, -0.3
